# Bioassay records (PubChem)
# ALR inh: human ALR oxidase inhibition via reduced H2O2; P55789; purified ALR, DTT oxidation, H2O2 HRP-luminol luminescence; inhibition, % (test concentration not listed); 290,000 tested, 3.8% active; AID 485317;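 active means mean and each replicate at 75% or more; inconclusive means only one of the two met; inactive means neither met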;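 further: stock transfer was 7.5 nL into about 7.5 µL; 0% = neutral wells and 100% = wells with inactivated enzyme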
# Target sequence (P55789 whole entry, looked up): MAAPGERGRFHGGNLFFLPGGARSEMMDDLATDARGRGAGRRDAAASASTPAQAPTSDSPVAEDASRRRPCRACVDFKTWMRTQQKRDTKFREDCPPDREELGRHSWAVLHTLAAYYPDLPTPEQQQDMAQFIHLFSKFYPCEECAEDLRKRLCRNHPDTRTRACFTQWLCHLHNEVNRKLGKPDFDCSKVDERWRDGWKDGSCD
# T cruzi repl: blocks replication of Trypanosoma cruzi | T. cruzi beta-gal in NIH3T3, luminescence, 90 h | inhibition, % (test concentration not listed) | 300,000 tested, 1.4% active;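 active means mean inhibition across valid replicates above about 55%, limit read from the data; inconclusive means mean below that limit but half or more replicates reach it; inactive means mean below it, under half of replicates reach it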;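 further: signal also drops with host cell toxicity which is not excluded here; 0% = plate median of DMSO wells and 100% = zero luminescence signal; higher percent means less beta-gal luminescence so fewer parasites; stock transfer was 50 nL into about 50 µL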
# Beta apoptosis: beta cell apoptosis inhibition; INS-1E cytokine-induced death, ATP luminescence, 48 h; percent of positive-control rescue, neutral wells zero; AID 435005; protection from apoptosis, % (concentration not given with the values); 300,000 tested, 0.8% active;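 active means all replicates at 75% or more, or half of them and the mean; inconclusive means half reach 75% but not the mean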;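 further: 0% = cytokine-treated negative control wells and 100% = positive control rescue; higher means more ATP so stronger rescue from cytokine killing; wells of about 40 µL received 100 nL stock; the first replicate is given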
# Ecoli rRNA inh: inhibits bacterial ribosomal RNA function over humanized ribosomes. E. coli WT GFP vs humanized-ribosome RFP mutants, fluorescence, 24 h; hits give low values; DMSO median 0, no signal -100. GFP signal change (wild-type ribosome), % (concentration not given with the values). 350,000 tested, 1.6% active. AID 720706;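 active means significant combined selectivity score with lowered wild-type GFP, culture density cut under 30%, mutant RFP and density less affected; inactive means any of these conditions unmet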; further: one replicate is shown; some compounds called inactive have numbers as strong as hits
# LANA-H2B inh: blocks KSHV LANA binding to histone H2A/H2B; AID 2629; Q9QR71; 320,000 tested, 0.6% active; cell-free LANA-H2A/H2B peptide, fluorescence polarization; inhibition, % (no concentration beside the values); in the data active means inhibition mostly above about 10%, no sharp cut-off; inactive means mostly below about 6.7%;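 further: stock transfer was 7.5 nL into about 10 µL; 0% = median of vehicle wells and 100% = median of positive control wells; one replicate is shown; the record names a cut of 25% in any replicate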
# B2AR ag: activates human beta-2 adrenergic receptor causing internalization | 340,000 tested, 0.43% active | AID 504454 | response, % (concentration not given with the values) | P07550 | Am2.2-beta2AR cells, FAP receptor internalization, flow cytometry; reference of the scale not given here;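 active means response above a set limit, near 3 SD of response in nonfluorescent compounds, cut at about 42% in these data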;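 further: stock transfer was 100 nL into about 11 µL; a reference agonist was the positive control; negative values mostly stem from fluorescent compounds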
# Target sequence (P07550 whole entry, looked up): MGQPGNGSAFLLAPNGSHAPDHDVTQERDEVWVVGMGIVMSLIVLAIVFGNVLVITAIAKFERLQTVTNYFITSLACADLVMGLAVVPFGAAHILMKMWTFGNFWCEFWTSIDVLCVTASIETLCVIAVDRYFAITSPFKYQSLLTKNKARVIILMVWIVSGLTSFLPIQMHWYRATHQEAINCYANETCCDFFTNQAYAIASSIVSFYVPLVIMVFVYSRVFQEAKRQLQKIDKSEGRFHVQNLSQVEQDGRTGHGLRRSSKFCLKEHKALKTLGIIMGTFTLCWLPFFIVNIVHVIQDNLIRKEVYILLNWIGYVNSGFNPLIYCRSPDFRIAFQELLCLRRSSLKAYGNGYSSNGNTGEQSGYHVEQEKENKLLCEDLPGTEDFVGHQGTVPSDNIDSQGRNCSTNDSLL
# Calb FLC: C. albicans growth modulation with fluconazole | AID 1979 | growth inhibition, % (concentration not given with the values) | C. albicans CaCi-2 (fluconazole-resistant clinical isolate) + fluconazole, Alamar Blue growth, 48 h | 300,000 tested, 0.57% active;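 active means most replicates above 75%; inconclusive means exactly half above 75%; inactive means most below 75%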;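 further: all wells also contain fluconazole at 8 µg/ml as a sub-toxic cotreatment; 0% = median of DMSO wells and 100% = median of geldanamycin control wells; wells of about 8 µL received 7.5 nL stock; the first replicate is given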
# Bfl-1 A1 inh: inhibitors of the anti-apoptotic protein A1, read as caspase activation; MEF A1-2A-BIM cells, Caspase-Glo 3/7 luminescence, 3 h; percent of clofoctol response, vehicle zero; caspase activation, % (test concentration not listed); 330,000 tested, 0.066% active; AID 2462;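 active means over half of replicate activation scores above 10%, or exactly half above 10 with the replicate mean above 10; inconclusive means replicate mean below 10 yet half the replicates above 10; inactive means over half of replicates below 10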;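 further: wells of about 30 µL received 50 nL stock; many hits fall short of the cut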
# Ecoli rRNA inh OD600: second read-out of Ecoli rRNA inh, no call of its own (marks repeat the call); OD600 change, %; measured here: OD600 growth;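 optical density of the mix in the first replicate; 0 = DMSO median and -100 = no signal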
# Ecoli rRNA inh RFP: recorded beside Ecoli rRNA inh, whose call it bears; RFP signal change, %; measured here: RFP humanized mutant strains;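 first replicate; 0 = DMSO median and -100 = no signal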
# An asterisk follows results filed as active; i = inactive; ? = inconclusive; . = no result given.
SMILES,ALR inh,T cruzi repl,Beta apoptosis,Ecoli rRNA inh,Ecoli rRNA inh OD600,Ecoli rRNA inh RFP,LANA-H2B inh,B2AR ag,Calb FLC,Bfl-1 A1 inh
CCOc1ccc2[nH]c3c(NCC(C)C)ncnc3c2c1,?,9.8,21.8,.,.,.,1.3,5.8,16.5,-0.1
COc1ccc(NC(=S)NC(=O)c2cc3ccccc3o2)c(OC)c1,-21.5,-26.5,4.8,7.1,10.6,1.4,7.4,-0.7,14.0,-1.1
Cc1ccc(Cn2ccsc2=NC(=O)COC(=O)c2ccc(O)cc2O)cc1,17.3,26.0,11.3,-25.5*,-4.9*,-0.1*,0.6,6.0,-23.1,-1.3
O=C(O)c1cccc2c1C(=O)c1cc(Br)ccc1S2(=O)=O,1.8,.,-5.4,9.4,-0.6,30.0,3.1,10.9,.,0.7
Oc1ccccc1CN1CCCN(Cc2ccccc2O)C1,49.2,16.7,3.0,.,.,.,-1.7,-7.2,3.2,0.6
COc1ccc(CCN(C(=O)C(F)(F)F)C(C(=O)NC2CCCCC2)c2cccs2)cc1 (stereo unspecified),-1.2,0.7,-2.6,-8.8,-5.6,-3.6,-9.7,8.9,-15.3,-0.8
O=C(Cc1ccc(Cl)cc1)NCCCNC(=O)c1cccnc1,1.2,3.8,48.6,2.9,7.2,4.5,7.5,-1.3,-5.0,-0.1
COc1ccc(N2CCN(CCNS(=O)(=O)c3ccc(C)cc3)CC2)cc1,.,-13.4,1.0,3.7,1.8,0.1,5.6,-1.3,25.7,0.6
O=C(Nc1cc(Cl)ccc1Cl)c1ccc(OC(=O)c2ccco2)cc1,-23.2,-22.4,-8.2,.,.,.,0.9,7.1,-10.2,-1.7
CC(C)CCN1CCN(CC#Cc2ccccc2)CC1CCO (stereo unspecified),-2.2,-13.7,-0.2,8.1,10.4,-0.3,5.7,5.9,-18.4,0.3
COc1ccc(N2C(=O)C(CC(=O)Nc3ccc(F)cc3)N(CCc3ccc(OC)c(OC)c3)C2=O)cc1 (stereo unspecified),68.0,0.7,-0.9,-7.6,-11.9,-0.9,-0.4,1.1,3.4,1.2
O=C(NCC1CCCO1)C1c2ccccc2Oc2ccccc21 (stereo unspecified),-2.1,-16.2,-1.5,7.5,2.2,-6.7,0.2,5.3,-3.6,-0.8
O=C(CN1CCN(S(=O)(=O)c2ccc(F)c(Cl)c2)CC1)N1CCOCC1,-6.4,.,8.4,3.6,2.9,-1.3,-1.2,-1.9,.,1.2
COc1ccc(Oc2ccc(C(F)(F)F)cc2N)cc1,-15.1,12.6,-6.5,-3.6,5.0,-1.6,-2.7,7.1,-11.2,-1.8
COc1ccc(C2Nc3ccccc3C(=O)N2c2ccccc2)cc1COc1ccccn1 (stereo unspecified),-4.0,9.9,.,6.6,3.0,0.3,-3.8,-3.9,-0.1,-1.1
O=C(COc1ccccc1Cl)Nc1cnn(Cc2ccccc2)c1,-18.6,-3.8,-2.8,.,.,.,-2.4,0.1,-2.1,-0.2
Cc1ccc(NC(=O)COC(=O)c2cc(=O)c3ccccc3o2)c(Br)c1,.,.,-8.5,16.6,12.9,-1.9,-0.9,8.0,.,-0.2
COc1ccc(CNC(=O)CNC(=O)CNS(=O)(=O)c2ccc(C)c(C)c2)cc1,0.1,4.1,-1.2,1.6,-0.5,5.5,1.6,5.8,5.5,-0.4
CC(C)Oc1ccc(Cn2c(=O)oc3ccccc32)cc1,0.9,-6.6,-2.6,6.1,7.7,0.2,0.8,6.5,-5.5,-0.6
COc1ccc(COC(=O)C2=C(C)NC(=O)NC2c2ccc(OC)cc2)cc1 (stereo unspecified),-7.7,11.1,-18.6,4.7,6.5,-3.1,9.4,-0.2,6.8,0.9
O=C1CN(C(=O)CNCc2cccc(Cl)c2)c2ccccc2N1,-6.4,-4.4,-5.6,3.7,6.8,-3.9,1.3,12.3,5.2,0.5
CC(=O)Nc1ccccc1-c1nnn(CC(=O)Nc2ccc3c(c2)OCCO3)n1,0.2,2.4,-0.4,-12.6,-5.4,1.0,-2.8,-18.6,11.9,0.7
O=C1CC[C@H](O)CCN1[C@H](CSc1ccc(Br)cc1)Cc1ccccc1,11.4,.,-4.5,-29.3,-34.0,-9.8,1.8,-2.8,.,-0.2
C=CCNC(=S)N1CCN(c2cc3c(cc2F)c(=O)c(C(=O)O)cn3CC)CC1,-14.6,-9.4,-18.5,-63.1,-78.8,-23.9,5.9,6.9,-5.1,0.4
O=C(NCc1cccs1)c1ccc(Cl)c(S(=O)(=O)N2CCCC2)c1,10.7,-3.9,-0.6,-19.0*,-5.0*,1.9*,-5.5,3.1,-12.0,-0.9
Cn1c(=O)[nH]c(=O)c2c1nc(CN1CCOCC1)n2Cc1ccccc1,-2.9,-8.2,-5.9,11.8,11.9,-5.2,-5.6,11.1,13.1,0.9
CN(C)C(=O)C1C2NC(=S)N(c3ccc(Cl)cc3)C1(C)Oc1ccc(Cl)cc12 (stereo unspecified),-1.5,5.4,-3.4,-18.1,-9.4,0.5,-3.4,3.4,-4.2,0.6
Cc1ccc(S(=O)(=O)N2CCOCC2)cc1C(=O)OC1CCCCC1=O (stereo unspecified),-1.7,-0.7,-1.3,.,.,.,0.2,6.4,-9.9,-1.0
COc1ccc2[nH]c(CN3CCN(CCC(C)C)C(CCO)C3)c(C)c2c1 (stereo unspecified),6.1,60.8*,-6.4,-1.7,-3.7,-0.6,2.9,3.3,-16.1,0.1
Cc1ccc(S(=O)(=O)N(C)c2ccc(C(=O)N3CCCCC3)cc2)cc1,-7.7,25.0,11.3,-2.0,-2.8,-3.3,-1.9,-7.1,-4.8,-0.5
Cc1cccc(C)c1OCCNC(=O)c1ccc2ccccc2n1,-31.1,21.1,-6.2,-33.7,-37.6,0.0,2.3,6.3,11.0,-0.4
CCOc1ccccc1N1CCN(C(=O)c2cccc(-c3ccc(O)cc3)c2)CC1,63.5,15.0,-12.4,-15.3,-14.0,2.7,2.1,10.3,-0.8,0.9
CC(NC(=O)Nc1ccccc1)C(c1cccs1)N1CCOCC1 (stereo unspecified),-19.7,5.6,2.7,3.4,6.7,-0.7,3.4,39.2,-8.8,0.1
O=C(O)c1ccc(/C=N/Nc2ncc(C(F)(F)F)cc2Cl)cc1,.,-27.4,-0.6,-0.5,-3.8,-2.6,3.8,4.5,5.1,0.7
COc1cc(C(Nc2ccccn2)c2c(NC(=O)c3ccco3)sc(C)c2C)cc(OC)c1OC (stereo unspecified),9.3,21.2,-1.7,3.1,12.9,6.2,4.0,-8.1,-2.7,1.2
Cc1ccc[n+](CC(=O)c2ccccc2)c1,6.6,-18.3,-4.1,.,.,.,-2.1,.,-7.8,1.2
COc1ccc(CN(C)C(=O)C2CCN(C(=O)Nc3ccccc3)CC2)cc1,.,-4.4,-0.9,1.7,-1.0,-1.8,.,-6.3,-9.8,-0.2
Cc1ccc(C2(C(F)(F)F)NC(=O)N3N=C4CCCCCN4C3=C2C#N)cc1 (stereo unspecified),-20.0,-1.7,3.2,9.9,5.2,0.9,5.1,2.3,-2.9,0.8
Cc1ccc(S(=O)(=O)N2[C@@H](c3ccccc3)C(C(=O)O)=CC[C@H]2c2ccc3c(c2)OCO3)cc1,0.8,.,-2.6,-23.4,-19.2,-1.5,-2.9,-0.7,.,-0.7
Cc1ccc(C)c2c1cc(C)c1nnc(SCC(=O)N3CCCc4ccccc43)n12,-4.5,8.2,.,.,.,.,0.4,1.7,37.3,0.1
CCc1cccc(CC)c1NC(=O)C[n+]1cccc(C(N)=O)c1,-4.5,-0.8,.,7.5,23.4,0.9,4.0,0.2,-3.2,0.9
COc1ccc2[nH]cc(CCNC(=O)COc3cc(C)cc4oc(=O)cc(C)c34)c2c1,0.1,28.7,0.2,15.5,14.0,0.4,0.6,-5.4,-3.2,0.2
NC(=O)CSc1nccn1Cc1ccccc1,30.9,-19.0,-0.1,8.3,7.7,3.1,-3.9,3.4,-1.0,2.3
O=C(CCCc1ccccc1)Nc1ccnn1C1CCN(Cc2ccccc2)CC1,-37.2,15.6,6.2,5.6,-2.2,2.0,3.1,2.1,-1.0,0.3
Cc1cc(C)n2nc(C(=O)NNC(=O)c3ccccc3)nc2n1,-0.6,-10.7,-8.2,23.7,16.7,4.0,i,3.8,-11.0,0.3
COC(=O)c1cc(Cl)c(NC(=O)c2cc3ccccc3o2)cc1OC,-1.5,1.9,2.7,.,.,.,1.2,-3.0,15.7,-0.8
COc1cc(CNc2ccc3[nH]c(=O)[nH]c3c2)ccc1OCc1ccc(F)cc1,89.4*,-49.2,-1.4,-0.5,-2.5,6.4,6.3,1.6,1.8,-0.4
COc1cc(CNCC(C)C)c(Br)cc1OCC(=O)NCc1ccccc1,-5.4,9.2,-6.3,.,.,.,1.1,5.5,-4.0,0.5
Cc1ccc(-c2cc[n+](Cc3ccccc3)cc2)cc1,-2.9,.,50.7,-32.0*,-3.3*,6.4*,3.4,0.7,-20.7,1.0
Cc1ccc(NC(=O)COC(=O)CCc2nc3ccccc3c(=O)[nH]2)cc1Cl,-9.3,-19.4,.,1.4,9.6,3.9,1.5,7.5,24.6,-0.5
CN(CCOc1cccc2ccccc12)Cc1ccccc1,-25.3,7.5,-3.1,-11.8,-10.1,-2.6,-2.3,-2.1,-22.8,1.3
O=C(NCc1ccc(OC(F)(F)F)cc1)c1cccc2c1C(=O)c1ccc(N3CCC(Cc4ccccc4)CC3)cc1S2(=O)=O,-1.8,.,8.0,5.3,8.6,12.2,-9.4,-12.2,.,-0.5
Cc1cccc(NC(=O)C(=O)NCC2CCCN2S(=O)(=O)c2cccs2)c1C (stereo unspecified),.,-1.1,-2.2,-10.9,-11.4,3.2,-0.1,4.7,5.9,-0.3
COCCCNC(=O)Nc1ccc(F)cc1F,.,-1.4,-3.9,.,.,.,-4.0,-4.0,-5.9,1.7
O=C(Nc1ccc(O)c2c(=O)cc(-c3cccc(Cl)c3)oc12)c1ccccc1Cl,2.6,-4.5,.,3.7,-3.9,-0.9,-3.9,1.6,6.8,0.6
CCn1cc(C(=O)NCCC2=CCCCC2)c(=O)c2cc(S(=O)(=O)N(C)C)ccc21,-50.6,11.2,8.1,-18.0,-24.2,3.2,1.5,-20.7,-4.9,1.0
COc1ccc(CC(=S)N2CCOCC2)cc1F,5.5,7.1,1.6,.,.,.,1.1,-6.7,-0.9,0.3

# These rows are one share of the data. The share of hits here may be higher or lower than overall.
